High-throughput results deposited in PubChem BioAssay by National Center for Advancing Translational Sciences (NCATS).
NS1 inh = blocks influenza NS1 protein function; S. cerevisiae slowed by influenza A NS1, growth recovery by OD600; Potency, µM (titrated, usually from 46.1 µM), inactives show at the top dose activity, positive = more growth; 270,000 compounds, 0.4% hits; also: actives are rising curves; nearly all actives have a fitted effect of over 50% in size
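Growth recovery, yeast-based: influenza A NS1 expressed in S. cerevisiae causes slow growth, and suppressors are detected by OD600. The parent strain without NS1 is used as positive control.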
2A StopGo = FMDV 2A StopGo reporter, luciferase signal | human cells with a luciferase reporter of 2A StopGo recoding; control for the full effect not named in the record | Potency, µM (doses to about 57.9 µM), for inactives: at the highest dose signal change, negative = less light | 410,000 compounds, 1.2% hits | AID 1159524; active = well fitted falling curve with a large enough effect; inconclusive = small, poorly fitted or top-dose-only effect; inactive = no such curve, though single readings can be large or run the other way; tested in HEK293T cells; also: % is scaled to controls: 0 for no effect and ±100 for the full control effect; nearly all actives have a fitted effect of over 45% in size; luciferase light after 4 h
Cruzain noTriton = blocks cruzain activity in detergent-free assay. P25779. Potency, µM, for the others: max response, negative = inhibition, usual class: inhibitors. purified cruzain, Z-FR-AMC fluorescence, no detergent. 200,000 compounds, 2.3% hits; active = well fitted curve in the direction sought with a large enough effect; inconclusive = small, poorly fitted or top-dose-only effect, or another doubt; inactive = no such curve, though single readings can be large; an effect the other way counts as inactive or inconclusive;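 also: plate controls were enzyme without inhibitor for no effect and buffer without enzyme for full effect; nearly all actives have a fitted effect of over 40% in size; top concentration of the series not given in the record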
Target sequence (P25779 123-467 limits assumed): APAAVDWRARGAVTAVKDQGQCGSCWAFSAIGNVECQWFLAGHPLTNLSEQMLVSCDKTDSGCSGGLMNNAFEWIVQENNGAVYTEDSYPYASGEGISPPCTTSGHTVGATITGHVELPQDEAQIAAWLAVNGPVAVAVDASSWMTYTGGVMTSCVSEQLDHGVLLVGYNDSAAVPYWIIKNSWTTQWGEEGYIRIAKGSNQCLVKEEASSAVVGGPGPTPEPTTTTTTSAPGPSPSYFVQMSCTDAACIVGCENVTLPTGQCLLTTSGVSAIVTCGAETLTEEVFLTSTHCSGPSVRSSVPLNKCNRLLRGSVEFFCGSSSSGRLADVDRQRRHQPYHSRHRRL
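Purified cruzain at 1.5 nM, pre-incubated 15 min with compound at room temperature in 100 mM sodium acetate pH 5.5, 5 mM DTT, 0.00005% Triton X-100. Reaction started with 2 uM Z-FR-AMC; AMC fluorescence increase over 60 s gives rate.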
Marburg entry inh = blocks Marburg virus binding to or entry into cells. Marburg virus pseudotyped entry inhibition, cell reporter; control for the full effect not named in the record; about a third of the inactives were read at about 46 µM. Potency, µM (titrated, usually from 37.8 µM), inactives show top-dose activity change, negative = inhibition, hits mostly inhibitors. 300,000 compounds, 1.8% hits; active = well fitted inhibition curve with a large enough effect; inconclusive = small, poorly fitted or top-dose-only effect, or effect the other way; inactive = flat fitted curve, though single readings scatter; tested in HEK293 cells; about a fifth of its hits are not listed in these tables; also: % is scaled to controls: 0 for no effect and ±100 for the full control effect; luciferase read-out
Lassa entry inh = inhibitors of Lassa virus binding or cell entry; Lassa virus pseudotype entry inhibition, cell reporter; control for the full effect not named in the record; Potency, µM (top dose mostly 37.9 µM), without a hit: top-dose activity change, negative = inhibition, hits mostly inhibitors; 300,000 compounds, 1.2% hits; active means well fitted inhibition curve with a large enough effect; inconclusive means small, poorly fitted or top-dose-only effect, or effect the other way; inactive means flat fitted curve, though single readings scatter; tested in HEK293 cells; also: % is scaled to controls: 0 for no effect and ±100 for the full control effect; nearly all actives have a fitted effect of over 50% in size; luciferase read-out
Cruzain Triton = blocks cruzain activity in presence of Triton detergent. P25779. purified cruzain, Z-FR-AMC fluorescence, 0.01% Triton. Potency, µM, for inactives: max response, negative = inhibition, actives largely listed as inhibitors. 200,000 compounds, 0.43% hits. AID 1478; active = well fitted curve in the direction sought with a large enough effect; inconclusive = small, poorly fitted or top-dose-only effect, or another doubt; inactive = no such curve, though single readings can be large; an effect the other way counts as inactive or inconclusive;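 also: plate controls were neutral wells for no effect and buffer without enzyme for full effect; nearly all actives have a fitted effect of over 40% in size; top concentration of the series not given in the record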
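Steps: dispense cruzain (1.5 nM final) in acetate buffer pH 5.5 with DTT and 0.01% Triton X-100; pin-transfer compounds; incubate 15 min RT; add Z-FR-AMC (2 uM final); read fluorescence every 30 s, using the 60 s intensity change.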
SARS PLpro yeast = blocks SARS-CoV papain-like protease in a yeast assay. S. cerevisiae expressing SARS-CoV PLpro, growth rescue; control for the full effect not named in the record. Potency, µM (top dose mostly 32.9 µM), for the others: at the highest dose activity, positive = growth rescue. 330,000 compounds, 0.19% hits; also: 0% is about no effect; nearly all actives have a fitted effect of over 55% in size; growth read by luminescence after 48 h
RE007 growth inh = less growth of the S. pombe RE007 Vpr strain. 360,000 compounds, 0.21% hits. AID 651644. S. pombe RE007 Vpr strain, BacTiter-Glo ATP luminescence, 24 h; control for the full effect not named in the record. Potency, µM (highest dose often 92.2 µM), for the others: at the highest dose activity change, negative = less growth; active = well fitted falling curve with a large enough effect; inconclusive = small, poorly fitted or top-dose-only effect; inactive = no such curve, though single readings can be large or run the other way;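 also: % is scaled to controls: 0 for no effect and ±100 for the full control effect; nearly all actives have a fitted effect of over 50% in size; the assay follows cell death caused by Vpr and the record does not say whether a fall means rescue or toxicity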
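Fission yeast RE007 carrying one integrated HIV-1 vpr copy, seeded at OD 0.01 in PMG+AL medium with 23 nL pinned compound. Grown 24 h at 30 degrees; viability read by BacTiter-Glo luminescence after 5 min.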
* = called active by the depositor; ? = inconclusive; . = no result given; & = joins results of further samples; [ ] = another dose, or the depositor's remark. Unless noted, calls follow the shape of the dose curve; as a rule, active means well fitted rising curve with a large enough effect; inconclusive means small, poorly fitted or top-dose-only effect; inactive means no such curve, though single readings can be large or run the other way. Potency is read from the fitted curve at half-maximal effect.

Screens in order – NS1 inh | 2A StopGo | Cruzain noTriton | Marburg entry inh | Lassa entry inh | Cruzain Triton | SARS PLpro yeast | RE007 growth inh
- Cc1cc(C)c(Nc2ncnc(N)n2)c(C)c1
  2% | -3% | . | 3% | 15% | . | 1% | -2%
- O=C(Cc1ncc(C(F)(F)F)cc1Cl)NNc1cccc(F)n1
  -12% | -3% | . | . | . | . | 0% | 4%
- COc1ccc(-c2ccnc(-c3ccc(O)cc3)n2)cc1
  . | 15% | . | ? | ? | . | -6% | -6%
- O=C(N/N=C/c1cccc([N+](=O)[O-])c1)c1cccc(Br)c1
  . | 16% | . | -14% | 0% | . | -4% | -14%
- O=C(c1ccccc1-c1nc(-c2ccc(F)cc2)no1)N1CCCC1
  -21% | ? | 3% | ? | -21% | -0.6% | 0% | -8%
- O=C(CCc1nnc(C2CCCCC2)o1)NCCCOc1cccnc1
  0% | -8% | . | 5%[46.1 µM] | -2% | . | -2% | -1%
- CCc1cc(/C(Cc2ccccn2)=N\Nc2ccccc2)c(O)cc1O
  7% | -22% | . | -26%[46.1 µM] | -14% | . | -1% | 28%
- COCCN(C(=O)c1ccccc1F)c1nnc(-c2ccc(OC)cc2)s1
  -9% | 33%[activator] | . | . | . | . | -6% | 17%
- O=C(C1CC(=O)N(C2CCCC2)C1)N1CCN(c2ccccc2F)CC1 (centres undefined)
  -1% | -23% | -3% | . | . | 6.6% | 5% | 0%
- CC(NCC(=O)NC(=O)NC1CCCC1)c1ccc(Cl)cc1Cl (centres undefined)
  . | -20% | . | 4% | -8% | . | -10% | -4%
- CCc1nc(N)nc(N)c1-c1ccc(N(C)Cc2ccccc2)c([N+](=O)[O-])c1
  . | 22µM* | . | 0.89µM* | ? | . | . | 6%
- CC(=O)Nc1ccc(NC(=O)CCNS(=O)(=O)c2cccc3nsnc23)cc1
  . | -6%&2% | -3% | ? | 24%&22%[46.1 µM] | -2.1% | 2% | 10%
- COc1ccc(CC(=O)OCc2csc(CC(=O)Nc3ccc(C)cc3)n2)cc1
  . | 1% | . | -17%[46.1 µM] | 10%[46.1 µM] | . | -12% | 4%
- O=C(O)C1C2C=CC(O2)C1C(=O)NCCc1cccc(Cl)c1 (centres undefined)
  3% | 0% | . | ? | 8%[46.1 µM] | . | -4% | -15%
- CC(=O)c1ccc(NC(=O)CC(c2cccs2)N2Cc3ccccc3C2=O)cc1 (centres undefined)
  . | 80%[activator] | 3% | . | 24%[46.1 µM] | -1.4% | . | .
- Cc1nnc(SCc2cc(=O)[nH]c(N3CCN(C)CC3)n2)s1
  10% | -12% | -10% | ? | 3% | -2.3% | 1% | 13%
- Cc1cc(OC(=O)c2ccccc2Br)cc(=O)n1C
  -73% | ? | -3% | 5% | -8% | 7.2% | -10% | 1%
- C=CCc1cccc(CNc2nc3ccccc3n2CCC)c1O
  -43% | ? | -8% | ? | 1% | -3.7% | 0% | -3%
- CC(C)c1ccc(NC(=O)C2CCCN(S(=O)(=O)c3cccc4nonc34)C2)cc1 (centres undefined)
  . | -27% | 2% | -10%[46.1 µM] | -8%[46.1 µM] | 0.5% | . | .
- O=C1NC(c2ccccc2)=N/C1=C/c1ccco1
  6% | 68%[activator] | 0% | ? | ? | -8.0% | 12% | -12%
- O=C1COc2ccc3ccccc3c2CN1
  5% | -12% | -7% | 4% | 8% | 3.8% | -3% | -5%
- CCCc1cc(=O)oc2c(C)c(OC(C)C(=O)NCCN3CCOCC3)ccc12 (centres undefined)
  -4% | -10% | . | 13%[46.1 µM] | 15%[46.1 µM] | . | 0% | -10%
- S=C(Nc1ccccn1)NC1CCCC1
  -10% | -9% | . | . | . | . | 0% | -18%
- COC(=O)c1cc(-c2ccccc2)nc2nc(SC)[nH]c(=O)c12
  -2% | -15% | . | . | . | . | 2% | 8%
- CCN(CC)C(=O)CCSc1nnc(-c2ccco2)o1
  . | 55%[activator] | . | 2%[46.1 µM] | 10% | . | 2% | 2%
- CC(=O)N(/N=C1\Sc2ccccc2C1=O)c1cccc(C)c1
  -11% | -4% | 7% | -23% | ? | 1.2% | -8% | -2%
- CC(=O)Nc1ccc(S(=O)(=O)NC2(C(F)(F)F)C(=O)Nc3c2c(=O)[nH]c(=O)n3C)cc1 (centres undefined)
  7% | 5% | 6% | -3% | 5% | -0.6% | -3% | -16%
- CC1=C(c2ccc(Cl)cc2)S(=O)(=O)NC1=NCc1ccc(C)cc1
  . | 26% | 7% | -26%[46.1 µM] | -13%[46.1 µM] | -4.1% | . | .
- CCOC(=O)C1=C(C)NC2=C(C(=O)C(C(=O)OC)C(C)C2)C1c1ccc(OC)c(O)c1 (centres undefined)
  -15% | 19% | 10% | 3% | -18% | -4.1% | -4% | -9%
- CCCn1c(=O)c2c(nc3n2CCN3Cc2ccco2)n(C)c1=O
  . | -21% | . | ? | 13%[46.1 µM] | . | 0% | 2%
- Cc1ccc(C2c3c(-c4ccccc4O)n[nH]c3C(=O)N2CCCO)cc1 (centres undefined)
  . | -15% | -14% | -8%[46.1 µM] | ? | -1.9% | . | .
- COc1cc(NC(=O)CCc2nnc3ccc(N4CCN(c5cccc(OC)c5)CC4)nn23)cc(OC)c1
  21% | -19% | . | . | . | . | -5% | 1%
- COc1ccc(CC(=O)Nc2nc3n(n2)C(c2ccccc2)CC(=O)N3)cc1OC (centres undefined)
  2% | -24% | 3% | 0% | 4% | -1.6% | 1% | -3%
- CCOc1ccc(N2CC(NC(=O)c3ccc4ccccc4c3)CC2=O)cc1 (centres undefined)
  . | -4% | . | ? | -11% | . | -1% | 52%
- C/C(=N/NC(=O)CNC(=O)c1cccs1)c1ccc(Cl)cc1
  -23% | 11% | . | -26%[46.1 µM] | 6%[46.1 µM] | . | -5% | 17%
- CCCCCCCC(=O)N1CCN(c2cc3c(cc2F)c(=O)c(C(=O)O)cn3CC)CC1
  -1% | -11% | . | . | . | . | 1% | -8%
- COc1ccc(C(=O)C(C)[n+]2ccc(C)c3ccccc32)cc1[N+](=O)[O-] (centres undefined)
  3% | -20% | . | . | . | . | -1% | -22%
- O=C(CN(Cc1ccc(Br)cc1)S(=O)(=O)c1ccccc1)NCC1CCCO1 (centres undefined)
  -11% | -1% | . | ? | 5% | . | 5% | 2%
- Nc1ccccc1C(=O)N1CCCC1
  . | -1% | . | ? | -1% | . | 4% | 8%
- O=C(N/N=C/c1ccc(Br)s1)c1ccccc1[N+](=O)[O-]
  1% | 11% | 1% | -1% | 1% | -15% | 1% | 7%
- COc1cccc(-c2nnn(CC(=O)N3CCCCC3)n2)c1
  -2% | 43%[activator] | . | ? | -5%[46.1 µM] | . | -2% | 12%
- Cc1ccc(/C=N/NC(=O)c2ccncc2)cc1
  ? | 27% | . | 11%[46.1 µM] | 2%[46.1 µM] | . | . | 7%
- CC(=O)Nc1ccc(S(=O)(=O)N2CCN(CC(O)COc3ccc4ccccc4c3)CC2)cc1 (centres undefined)
  2% | -94% | ? | 6% | -26%[14.3 µM] | -0.9% | -2% | 4%
- COc1ccc(C(=O)NNc2ncnc3c2cnn3-c2cccc(Cl)c2)cc1OC
  . | 0% | 8% | . | ? | 0.9% | . | .
- CCCN(CCC)C(=O)Cn1c(=O)n(CCCCCC(=O)NCc2ccc3c(c2)OCO3)c(=O)c2sccc21
  . | -11% | 5% | 1%[46.1 µM] | -7%[46.1 µM] | -1.1% | . | .
- Cc1ccc2nc(/N=C(\N)NC(=O)N3c4ccccc4Sc4ccccc43)nc(C)c2c1
  -8% | -28% | ? | -3% | -12% | -4.0% | -15% | -8%
- CS(=O)(=O)N(Cc1ccccc1)c1ccccn1
  0% | 2% | 8% | 15% | 7% | 0.2% | 10% | 1%
- Cc1cc(Cl)c(S(=O)(=O)NCc2ccccc2)cc1OCC(N)=O
  1% | 57%[activator] | 6% | 1% | -2% | -0.6% | 4% | -12%
- CCOc1ccc(OCC(=O)NCc2n[nH]c(=O)c3ccccc23)cc1
  . | -11% | . | ? | 3% | . | -2% | -11%
- O=C(CN1c2cccc3cccc(c23)S1(=O)=O)Nc1ccccc1F
  5% | -14% | . | ? | 11% | . | -1% | 1%

Other entries
Screens in order – NS1 inh | 2A StopGo | Cruzain noTriton | Marburg entry inh | Lassa entry inh | Cruzain Triton | SARS PLpro yeast | RE007 growth inh
- CCCN(C(=O)C1CCN(S(=O)(=O)c2ccc(OC)c(OC)c2)CC1)C1CCS(=O)(=O)C1 (centres undefined)
  . | -10% | . | -9% | 3% | . | 1% | -3%
- CN=c1sc(C(=O)Nc2ccccc2)c(C)n1C
  . | 23% | . | ? | ? | . | -1% | -24%
- Cc1ccccc1NC(=O)c1ccc2[nH]c(C)c(C)c2c1
  . | 33%[activator] | -13% | . | 0%[46.1 µM] | -7.4% | . | .
- CN(CCOc1ccccc1)CC(=O)Nc1ccc(Br)cc1F
  -8% | 10% | . | -21%[46.1 µM] | -1%[46.1 µM] | . | 0% | -14%
- CC=C(CC)C1(CC)C(=O)NC(=S)NC1=O
  . | ? | . | 5% | -7% | . | . | 1%
- Cc1ccc(NC(=O)CSC2=NN3CCCC(=O)N=C3S2)cc1Cl
  -6% | -25% | . | -1%[46.1 µM] | 0%[46.1 µM] | . | -1% | 4%
- COc1ccc(S(=O)(=O)N2CCCCCC2)cc1C(=O)N(C)CC(=O)Nc1ccc(F)cc1
  . | -18% | . | 12%[46.1 µM] | 0% | . | -3% | -11%
- Cc1c(Cl)ccc2sc(N3CCN(C(=O)CCS(=O)(=O)c4ccc(F)cc4)CC3)nc12
  . | 11µM* | 16% | . | ? | -6.7% | . | .
- CCc1ccc(OCc2cnc(Cl)s2)cc1
  2% | 0% | . | . | . | . | 2% | -3%
- O=C(O)C1=C[C@H](c2cccs2)C[C@H](OCCCCO)O1
  -39% | 0% | . | . | . | . | -1% | 3%
